A488 autofl = compound autofluorescence in A488 spectral region. max dye equivalency, M. compound autofluorescence, A488 spectral region, dye equivalency; active compounds read high. 59,000 compounds, 0.1% hits; active = above 10 nM dye equivalent; inconclusive = 1 to 10 nM; inactive = 1 nM or less; about half of its hits are not listed in these tables;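 further: highest value over a series up to 38 µM; compound alone in buffer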
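Spectroscopic profiling in the A488 region: compounds in pH 8.0 Tris (100 mM), 15 min RT, CCD imaging with 480 nm excitation and 540 nm emission; responses normalized against A488 dye standards.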
Resorufin fluor = compounds fluorescent in resorufin spectral region. Compound fluorescence, resorufin region 547/598 nm, buffer; active compounds read high. max dye-equivalent concentration, M. 59,000 compounds, 0.04% hits. AID 588; active = above 10 nM dye equivalent; inconclusive = 1 to 10 nM; inactive = 1 nM or less; a few of its hits are not listed in these tables; further: highest value over a series up to 38 µM
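Compounds in 100 mM Tris buffer, pH 8.0, incubated 15 min at room temperature, then read with 547 nm excitation and 598 nm emission filters. Fluorescence was converted to dye-equivalent concentration using an on-plate six-point resorufin standard curve.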
AID923 = qHTS Assay for Allosteric/Competitive Inhibitors of Caspase-1: Spectroscopic Profiling in AFC Spectral Region; compound fluorescence, AFC spectral region (405/520 nm); almost no hit is shown here; Potency, µM (titrated, usually from 57.5 µM), for the others: at the highest dose fluorescence increase, most hits filed as activators; 75,000 compounds, 1.1% hits; active means well fitted activation curve with a large enough effect; inconclusive means small, poorly fitted or top-dose-only effect;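 further: potency means the concentration at half of the fitted maximal effect; 0% is about no effect; scaled to a free AFC standard on each plate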
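Compound autofluorescence profiled at 405 nm ex/520 nm em during kinetic caspase 1 run (50 nM enzyme, 5 uM Ac-WEHD-AFC, HEPES pH 7.5, 10 mM DTT). Titration up to 57 uM; baseline from regression intercept, normalized to AFC standard curve.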
TSHR ag = TSH receptor (human) agonism | P16473 | HEK293-CNG-TSHR cells (CNG channel as cAMP sensor), membrane potential dye, cAMP | Potency, µM (highest dose often 57.1 µM), inactives show at the highest dose activation, hits mostly activators | 73,000 compounds, 0.48% hits | AID 926; active = well fitted activation curve of enough size with the parental cells flat; inconclusive = any curve in the parental cells; inactive = parental cells flat and receptor cells flat or falling; further: potency means the concentration at half of the fitted maximal effect; % of control where 0% means no effect; weak receptor curves with flat parental cells got no call and are not listed
Target sequence (P16473 whole entry, looked up): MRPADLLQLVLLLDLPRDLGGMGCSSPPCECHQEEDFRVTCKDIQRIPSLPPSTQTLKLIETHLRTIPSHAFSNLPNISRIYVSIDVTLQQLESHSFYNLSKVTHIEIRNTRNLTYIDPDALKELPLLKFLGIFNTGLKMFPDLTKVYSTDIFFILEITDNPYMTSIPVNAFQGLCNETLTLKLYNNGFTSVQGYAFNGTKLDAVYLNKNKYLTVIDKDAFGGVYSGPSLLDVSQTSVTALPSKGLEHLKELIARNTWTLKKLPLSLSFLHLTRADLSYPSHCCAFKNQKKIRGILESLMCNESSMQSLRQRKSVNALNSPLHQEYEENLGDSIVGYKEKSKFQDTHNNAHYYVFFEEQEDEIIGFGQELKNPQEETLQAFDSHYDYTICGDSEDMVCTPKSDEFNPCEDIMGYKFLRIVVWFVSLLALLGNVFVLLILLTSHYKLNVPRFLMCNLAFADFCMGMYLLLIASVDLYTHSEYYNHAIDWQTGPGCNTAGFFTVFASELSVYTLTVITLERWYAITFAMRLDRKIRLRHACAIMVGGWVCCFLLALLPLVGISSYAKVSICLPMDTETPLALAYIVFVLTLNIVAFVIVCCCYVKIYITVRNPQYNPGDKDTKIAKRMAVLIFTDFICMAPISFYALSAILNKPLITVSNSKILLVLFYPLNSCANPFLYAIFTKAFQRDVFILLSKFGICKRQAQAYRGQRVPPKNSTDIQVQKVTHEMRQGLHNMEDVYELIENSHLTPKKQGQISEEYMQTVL
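cAMP rise detected as CNG-channel membrane depolarization by fluorescent dye (emission 590 nm), 30 min after compound, following 60 min dye loading containing 100 uM RO 20-1724 at room temperature. Cells: TSHR/CNG HEK 293, with parental CNG HEK 293 as control.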
A647 fluor = compound fluoresces in the A647 spectral region; Compound fluorescence, A647 channel (570/671 nm), Tris buffer; max dye-equivalent concentration, M; 59,000 tested, under 10 active; AID 592; active means above 1 µM dye equivalent; inconclusive means 0.1 to 1 µM; inactive means 0.1 µM or less;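 further: values scaled relative to a standard on each plate; highest value over a series up to 38 µM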
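Buffer was dispensed, compounds and Alexa 647 standards were pin-transferred, and plates sat 15 min at room temperature. Intensity at 570/671 nm was then converted to dye-equivalent concentration using the plate's A647 standard curve.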
Active calls of the source: *; i = inactive; ? = inconclusive; / = not tested or not shown; [ ] = another dose, or the depositor's remark. Only part of the results is shown. The share of hits here may be higher or lower than overall.

SMILES | A488 autofl | Resorufin fluor | AID923 | TSHR ag | A647 fluor
CC1CCCCN1CCn1cnc2c([nH]c3ccccc32)c1=O (stereo not drawn) | / | / | 0.6% | -7.1% | /
Cc1c(C(=O)NCCC2=CCCCC2)oc2ccc(S(=O)(=O)N3CCC4(CC3)OCCO4)cc12 | i | i | 0.7% | 8.3%[11.4 µM] | 1.28e-08
COc1cc2nc(CN3C(=O)c4ccccc4C3=O)oc(=O)c2cc1OC | / | / | -0.5% | 12.0% | /
COc1ccc(NS(=O)(=O)c2ccc(NC(C)=O)cc2)cc1OC | / | / | 2.7% | 25.1% | /
COc1ccc2c(c1)CCC1[C@@H]2CCC2(C)[C@@H](NCCCCCCN3C(=O)C=CC3=O)CC[C@@H]12 (stereo partly drawn) | / | / | -3.1% | -4.1% | /
CCCCCn1c(C(C)NC(=O)CCC)nc2ccccc21 (stereo not drawn) | / | / | -1.6% | 13.5% | /
CCC(=O)N1CCc2cc(S(=O)(=O)CCC(=O)NCCC3=CCCCC3)ccc21 | i | i | 0.5% | 11.0% | 6.3e-09
O=C(NCc1cccnc1)C1CC(=O)N(c2ccc(F)cc2)C1 (stereo not drawn) | / | / | 1.5% | -0.7% | /
Cc1cc(C)n2c(SC/C(O)=C(\C#N)c3nc4ccccc4[nH]3)nnc2n1 | i | i | 1.6% | 2.6% | 3.3e-09
O=C(NCc1ccccn1)c1cc2n(n1)C(C(F)(F)F)CC(c1ccco1)N2 (stereo not drawn) | i | i | 2.6% | -4.2% | 7.7e-09
Cc1nc(NC2=NCN(CC3CCCO3)CN2)nc2ccccc12 (stereo not drawn) | i | i | -2.6% | -9.2% | 4.5e-09
CCn1c(=O)cc(OCC(=O)NCCC(C)C)c2ccccc21 | / | / | 2.2% | 20.3% | /
Cc1cc(C)nc(N(C#N)CC(=O)N(c2ccccc2)C(C)C)n1 | i | i | / | / | 7.28e-08
Cc1ccccc1NC(=O)N1CCCC(c2nc(-c3ccc(C(C)C)cc3)no2)C1 (stereo not drawn) | i | i | -1.6% | 18.8% | 1e-09
N#Cc1c(N)sc(=S)c2c1CCCC2 | ? | i | 14.7% | -7.2% | 1.03e-08
CC(C)(C)OC(=O)NCCc1nnc(SCC(=O)c2ccc(Cl)cc2)o1 | i | i | -0.4% | ? | 1.91e-08
COc1cccc(-c2cncnc2Nc2ccccc2)c1 | i | i | -1.6% | / | 1e-09
CCOC(=O)N1CCC(NC(=O)C2CCN(S(=O)(=O)c3cnc[nH]3)CC2)CC1 | i | i | 0.9% | ? | 5.7e-09
COc1ccc(C(=O)NCc2cccnc2)cc1OC | / | / | 2.8% | 3.8% | /
Cc1cc(SCC(=O)c2ccccc2)n2nc(C)nc2n1 | / | / | -0.7% | -3.5% | /
O=C1C2ON(c3ccc(Br)cc3)C(c3cccnc3)C2C(=O)N1C1CCCCC1 (stereo not drawn) | i | i | -1.9% | 18.5% | 1e-09
Cc1cc(S(=O)(=O)NCC(=O)O)ccc1F | i | i | 0.0% | -10.4% | 1.82e-08
COc1ccc(S(=O)(=O)N2CCC(C(=O)N3CCc4ccccc4C3)CC2)cc1 | / | / | -0.8% | ? | /
O=C(c1cccc(Cl)c1)N1CCCC(C(=O)N2CCCCCC2)C1 (stereo not drawn) | i | i | -1.5% | 8.2% | 1e-09
O=C(C1CCN(S(=O)(=O)c2cccc3cccnc23)CC1)N1CCN(c2ccccc2)CC1 | / | / | 1.0% | 11.8% | /

Given with each value named: four of the compounds above
> COc1ccc(C(=O)NCc2cccnc2)cc1OC
  A488 autofl: /
  Resorufin fluor: /
  AID923: 2.8%
  TSHR ag: 3.8%
  A647 fluor: /

> Cc1cc(SCC(=O)c2ccccc2)n2nc(C)nc2n1
  A488 autofl: /
  Resorufin fluor: /
  AID923: -0.7%
  TSHR ag: -3.5%
  A647 fluor: /

> Cc1cc(C)n2c(SC/C(O)=C(\C#N)c3nc4ccccc4[nH]3)nnc2n1
  A488 autofl: i
  Resorufin fluor: i
  AID923: 1.6%
  TSHR ag: 2.6%
  A647 fluor: 3.3e-09

> COc1cccc(-c2cncnc2Nc2ccccc2)c1
  A488 autofl: i
  Resorufin fluor: i
  AID923: -1.6%
  TSHR ag: /
  A647 fluor: 1e-09

Carrying on.
SMILES | A488 autofl | Resorufin fluor | AID923 | TSHR ag | A647 fluor
c1ccc(-c2nnc3sc(-c4ccncc4)nn23)cc1 | i | i | -1.0% | -1.3% | 3.2e-09
COc1ccc(NC(=O)CSc2nnc(Cc3ccccc3)o2)c(OC)c1 | i | i | -1.5% | 9.9% | 1.18e-08
COc1ccc(OC)c(C2=Nn3c(nnc3-c3ccco3)SC2)c1 | i | i | / | / | 2.47e-08
Cc1ccc(-c2nc(CS(=O)CC(=O)NC3CCCC3)c(C)o2)cc1 (stereo not drawn) | / | / | 0.1% | 6.2% | /
CCOC(=O)C1=C2SCCN2C(=O)C(C#N)C1(C)C (stereo not drawn) | i | i | -0.8% | -1.7% | 4.5e-08
Cn1cccc1C(=O)OCc1csc(-c2ccccc2)n1 | i | i | -2.0% | 6.5% | 4.5e-09
CCCCOc1ccc(C(C)NC(=O)C2CCCN(S(=O)(=O)CC)C2)cc1 (stereo not drawn) | i | i | -0.4% | 5.5% | 4.5e-09
CCOc1c(Br)cc(C(N)=O)cc1OC | i | i | -1.6% | -0.2%[11.4 µM] | 1.79e-08
CCOc1ccc(NC(=O)c2cnc3scc(C)n3c2=O)cc1 | / | / | -0.8% | -7.5% | /
CC(=O)OC(C)C | / | / | 1.1% | ? | /
Cc1ccc(C)c2[nH]c(=O)c(CN(CCCN(C)C)C(=O)NCc3ccccc3)cc12 | i | i | 0.9% | 16.3% | 1.23e-08
CCn1cc(C(=O)O)c(=O)c2cnc(N3CCN(C(=O)Nc4ccccc4)CC3)nc21 | i | i | 1.7% | -0.6% | 1.1e-09
O=S(=O)(Nc1ccc2c(c1)nc1n2CCN(Cc2ccccc2)C1)c1ccc(Cl)cc1 | i | i | 9.9% | -4.9% | 1e-09
Cc1[nH]c2ccc3c(ncn3CCC#N)c2c1C | i | i | / | / | 1e-09
O=C(Nc1ccccc1C(=O)O)c1ncn[nH]1 | / | / | 0.4% | 3.2% | /
O=C(O)c1c[nH]c2cc(OCc3ccccc3)ccc2c1=O | i | i | -2.1%[11.5 µM] | 6.7%[11.4 µM] | 2.26e-08
COC(=O)C1=C(O)CSC1=Nc1cccc(C(F)(F)F)c1 | / | / | -1.4% | 12.9% | /
COc1ccc(N2CCN(S(=O)(=O)c3cccc4cccnc34)CC2)cc1 | / | / | -0.1% | 30.9% | /
CCOc1ccc(-c2nnc(NC(=O)CCCOc3cccc(C)c3)o2)cc1 | i | i | -2.3% | ? | 2.9e-09
C=CCn1c(SCc2nc3ccccc3[nH]2)nnc1-c1ccccn1 | i | i | 3.6% | -2.5% | 2.87e-08
Cc1cccc2sc(NC(=O)CN(C)S(=O)(=O)c3ccc(Br)s3)nc12 | i | i | 1.8% | 2.3% | 2.71e-08
CC(=O)OC[C@H]1O[C@@H](ON=C(C)C)[C@H](OC(C)=O)[C@@H](OC(C)=O)[C@H]1OC(C)=O | / | / | -3.6%[11.5 µM] | 13.3%[11.4 µM] | /
O=C1C/C(=C/NCc2ccccc2)C(=O)N1 | / | / | 0.3% | 1.8% | /
C=CC[C@H](N)C(=O)O | i | i | -1.9% | ? | 1e-09
COc1ccc(CN(C)CC(=O)c2c(N)n(Cc3ccccc3)c(=O)n(C)c2=O)c(OC)c1 | i | i | -0.5% | ? | 1e-09

More compounds follow.
SMILES | A488 autofl | Resorufin fluor | AID923 | TSHR ag | A647 fluor
O=C(NCc1ccco1)C1Cc2ccccc2CN1S(=O)(=O)c1ccccc1F (stereo not drawn) | i | i | 0.5% | / | 2.73e-08
CCCOc1ccc(CC(=O)NCc2ccco2)cc1OC | i | i | 0.2% | -0.5% | 1e-09
Cc1cc2oc(=O)cc(C)c2cc1NC(=O)CCC(=O)O | i | i | 1.3% | -2.6% | 7.3e-09
Cc1ccc(S(=O)(=O)N2CCCC(C(=O)NCC3COCCO3)C2)cc1 (stereo not drawn) | i | i | 0.9% | 4.4% | 1.3e-08
CC1=C(C)C(=O)N(c2ccc(C(=O)O)cc2)C1=O | i | i | 0.4% | 1.0% | 8.4e-09
COc1cccc(N2C(=O)C3C(C2=O)C2C=CC3C23CC3)c1 (stereo not drawn) | i | i | -1.3% | -3.7% | 1.09e-08
O=C(O)C1C2C=CC3(CN(Cc4ccco4)C(=O)C13)O2 (stereo not drawn) | / | / | -0.1% | -5.2% | /
COC(=O)CN1C(=O)C(O)(CC(=O)c2ccc(Br)cc2)c2ccccc21 (stereo not drawn) | / | / | 3.5% | -13.4% | /
O=C(O)C1CCCCC1C(=O)N1CC=C(c2ccccc2)CC1 (stereo not drawn) | i | i | 1.1% | -3.5% | 1.74e-08
CN1CCN(CCCn2cnc3c(=O)oc4ccccc4c32)CC1 | i | i | -0.4% | -5.3% | 4.78e-08
CCOC(=O)C1=C(C)NC(C)=C(C(=O)OCC)C1C(=O)OCC(=O)N1CCCCC1CC (stereo not drawn) | i | i | 3.2% | 1.1% | 3.26e-08
CNCCCc1[nH]nc(N)c1C#N | i | i | 0.2% | 9.4% | 8e-09
CCCCC(c1nnnn1CC1CCCO1)N1CCN(c2nc3ccccc3s2)CC1 (stereo not drawn) | i | i | 0.3% | ? | 2.02e-08
COc1ccccc1Oc1c(C)oc2cc(OC(=O)c3ccco3)ccc2c1=O | i | i | 0.6% | 8.2% | 2.11e-08
CC(=O)N1c2ccccc2C(=O)C1N1CCCCC1 (stereo not drawn) | i | i | 5.3% | 4.1% | 3.51e-08
CC(C)C1C(C#N)=C(N)Oc2n[nH]c(-c3cccs3)c21 (stereo not drawn) | i | i | -2.4% | 11.1% | 2.68e-08
Cc1nc(CSc2nnc(C)s2)cs1 | i | i | -0.1% | 1.5% | 2.23e-08
Cn1cnc(S(=O)(=O)NCc2cccs2)c1 | i | i | 0.0% | 1.0% | 7.8e-09
O=C(CCSc1nc2ccccc2o1)N1CCOCC1 | i | i | -1.4% | 1.1% | 2e-08
COCCOC(=O)C1=C(C)NC2=C(C(=O)CC(C)(C)C2)C1c1ccc(N(C)C)cc1 (stereo not drawn) | / | / | 4.6% | ? | /
O=C(Nc1cccc(Cl)c1)N(CCN1CCOCC1)Cc1cccc(Cl)c1 | i | i | -0.8% | 25.9% | 1.68e-08
Cc1ccc(-c2noc(CCC(=O)Nc3ccc(C)cn3)n2)cc1 | i | i | -0.2% | 1.1% | 3.2e-09
Cc1ccc(S(=O)(=O)Nc2cc(C(=O)NCCN(C)C)ccc2N2CCCCC2)cc1 | i | i | -1.3% | 15.4% | 2.4e-09
CC(=O)Nc1cccc(NC(=O)C2CCCN2C(=O)Nc2ccc(Cl)cc2)c1 (stereo not drawn) | i | i | 1.4% | -8.6% | 1e-09
Cc1ccccc1CN1CCN(S(=O)(=O)c2ccc(F)cc2)CC1 | i | i | 1.0% | 19.1% | 5e-09

More records follow.
SMILES | A488 autofl | Resorufin fluor | AID923 | TSHR ag | A647 fluor
Nc1nonc1-c1nc2ccccc2n1CC(=O)N1CCCCC1 | i | i | -0.3% | ? | 1e-09
CCOC(=O)C1=C(C)NC(=O)NC1c1ccc(OCC(=O)OC)c(OC)c1 (stereo not drawn) | i | i | -0.7% | / | 3e-09
Cc1cc(C(=O)CNCc2ccco2)c(C)n1-c1ccc(F)cc1 | i | i | 5.5% | ? | 4.1e-09
COCc1nc2ccccc2n1Cc1ccc(Br)cc1 | i | i | -2.4% | ? | 3.5e-09
CC(C)NC(=O)c1ccc(-c2ccccc2C(F)(F)F)o1 | i | i | -2.3% | 43.9% | 4.96e-08
COc1cc(/C=N/O)ccc1OCc1ccc(C(=O)O)cc1 | i | i | / | / | 9.96e-08
